StopGo reporter = High Throughput Screening for Foot and Mouth Disease Virus Antivirals; human cells with a luciferase reporter of 2A StopGo recoding; control for the full effect not named in the record; Potency, µM (top dose mostly 57.9 µM), without a hit: at the highest dose signal change, negative = less light; actives 1.2% (n = 410,000); AID 1159524, 2015; active = well fitted falling curve with a large enough effect; inconclusive = small, poorly fitted or top-dose-only effect; inactive = no such curve, though single readings can be large or run the other way; tested in HEK293T cells; further: nearly all actives have a fitted effect of over 45% in size; luciferase light after 4 h
RE007 growth inh = qHTS Assay for Inhibitors of the HIV-1 protein Vpr | S. pombe RE007 Vpr strain, BacTiter-Glo ATP luminescence, 24 h; control for the full effect not named in the record | Potency, µM (highest dose often 92.2 µM), without a hit: at the highest dose activity change, negative = less growth | actives 0.21% (n = 360,000); active = well fitted falling curve with a large enough effect; inconclusive = small, poorly fitted or top-dose-only effect; inactive = no such curve, though single readings can be large or run the other way;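 further: nearly all actives have a fitted effect of over 50% in size; the assay follows cell death caused by Vpr and the record does not say whether a fall means rescue or toxicity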
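Fission yeast RE007 carrying one integrated HIV-1 vpr copy, seeded at OD 0.01 in PMG+AL medium with 23 nL pinned compound. Grown 24 h at 30 degrees; viability read by BacTiter-Glo luminescence after 5 min.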
* marks the source's active call; other numbers are inactive results; ? = inconclusive; [ ] = dose if it differs, or a comment. On the % scale 0 is the no-effect control and ±100 the full control effect; potency means the concentration at half of the fitted maximal effect. Some of the compounds tested. The share of hits here may be higher or lower than overall.

SMILES	StopGo reporter	RE007 growth inh
CCc1nc2c(OCc3ccccc3C(=O)OC)cccn2c1N(C)C(=O)c1cccc(OC)c1	-15%	-24%[18.4 µM]
C[C@@H]1CN([C@H](C)CO)C(=O)c2cc(NC(=O)Nc3ccc(F)cc3)ccc2O[C@@H](C)CCCCO[C@H]1CN(C)S(=O)(=O)c1ccc(Cl)cc1	-8%	-8%
CCN(CC)C(=O)C1=C(C)N(CCCN2CCCC2=O)C(=O)C(CC(=O)NC2CCCC2)C1 (stereo not drawn)	-21%	-11%
N#Cc1ccccc1OCCCN1CCC(C(O)(c2ccccc2)c2ccccc2)CC1	-22%	-18%
C[C@@H]1CCCCO[C@@H](CN(C)Cc2ccc(Cl)c(Cl)c2)[C@@H](C)CN([C@H](C)CO)C(=O)c2cc(NC(=O)CCC(F)(F)F)ccc2O1	-21%	10%
COc1ccc(CN2C[C@@H](CO)O[C@@H](n3cnc4c(NCCCO)ncnc43)C2)cc1	-17%	4%
COc1cc(OC)cc(C2=Cc3ccccc3C(CC(C)=O)N2c2ccc(-c3cccs3)cc2)c1 (stereo not drawn)	-28%	-13%
COC/C=C/C1=CC2=CC(=O)C(C)(OC(=O)c3cnc4ccccc4n3)C(=O)C2=CN1Cc1ccco1 (stereo not drawn)	-1%	-2%
O=C(Cn1sc2ccccc2c1=O)Nc1ccc(Br)cc1	-18%	50%
O=C(N/N=C/c1cccnc1)c1cc(-c2ccc(Cl)cc2)nc2ccccc12	-4%	4%
Cc1cccc(C)c1-n1nnnc1C1c2ccccc2C(=O)N1CCCN1CCOCC1 (stereo not drawn)	-11%	-5%
Nc1nc(SCc2ccccc2)sc1C(=O)N1CCCCC1	19%	11%
O=C(NCc1ccc(F)cc1F)[C@@H]1CCCN1C(=O)[C@@H]1CCCN1C(=O)c1ccccc1	-21%	6%
CCN1C[C@@H]2[C@@H]3C(=O)N(Cc4ccccc4)C(=O)[C@@H]3[C@](CC)(C(=O)OC)N2C1=NCc1ccccc1	-11%	1%
COc1ccc(C2=Nc3ccccc3N(C(=O)c3ccc(C(F)(F)F)cc3)C2C(=O)NCc2ccccc2)cc1 (stereo not drawn)	5%	2%
Cn1c(=O)c2cc(NC(=S)NCc3ccccc3F)ccc2n1Cc1cccc(C(F)(F)F)c1	-10%	28%
Cn1ccc2c(-c3ccc(F)nc3)cc3c(c21)C1CCC3C1 (stereo not drawn)	-20%	-4%
C[C@@H]1CN([C@H](C)CO)C(=O)CCCn2nncc2CO[C@@H]1CN(C)C(=O)Oc1ccc2ccccc2c1	-14%	21%
CCOC(=O)C1(C)CCN1C(=O)c1ccc(C(F)(F)F)cc1 (stereo not drawn)	-13%	1%
O=C(CN1C(=O)CSc2ccc(S(=O)(=O)N3CCOCC3)cc21)NCc1c(F)cccc1Cl	8%	18%
Cc1ccc(S(=O)(=O)N2C[C@]3(O)C[C@@H]4C(=O)N(c5ccccc5)C(=O)[C@@H]4C[C@]3(OC(=O)NCc3ccco3)C2)cc1	?	-18%
Nc1[nH]c(C(=O)c2ccccc2)c(-c2ccc(Cl)cc2Cl)c1C(=O)NCCc1c[nH]c2ccccc12	-26%	-8%
C(=C\c1ccccc1)/CN1CCN(C(c2ccccc2)c2nnnn2Cc2ccccc2)CC1 (stereo not drawn)	-8%	-24%
O=C(NC(c1ccccc1)c1cnccn1)C1CCN(Cc2ccc(Cl)c(Cl)c2)CC1 (stereo not drawn)	-26%	-2%
ClN=C1C=CC=CC1=NCl	13%	5%

Further compounds follow.
SMILES	StopGo reporter	RE007 growth inh
COc1cccc(-c2cnc(C(O)c3ccc(C(C)(C)C)cc3)[nH]2)c1 (stereo not drawn)	17%	-11%
O=C(NCc1cccs1)c1csc([C@@H]2O[C@H](CO)[C@H](O)[C@H](O)[C@H]2O)n1	-14%	-9%[18.4 µM]
CC(=O)N1CCC2(CC1)CC(=O)c1cc(Cl)ccc1O2	-21%	-7%
C[C@H]1CN(C2CCCCC2)C(=O)[C@@H]1CC(=O)Nc1ccccc1	0%	-30%
O=C1CC2c3ccccc3CCN2C(=O)CN1Cc1ccccc1 (stereo not drawn)	-5%	1%
O=C(c1ccc(Cl)cc1)C1CCN(C(=S)Nc2ccccc2)CC1	-1%	5%
COC(=O)C[C@@H]1C=C[C@H](NC(=O)Nc2cc(F)ccc2F)[C@@H](CO)O1	-9%	3%
Cc1cc2cc3n(c2nn1)N=C(Cl)CC3	-22%	3%
OCCN1CCN(c2ncnc3c2ncn3[C@H]2CN(Cc3cccnc3)C[C@@H](CO)O2)CC1	-14%	4%
O=C1CCCN1CCCNc1nc(NCc2ccccc2)nc2ccsc12	?	-23%
CCOc1cc2c(C#N)c(N3CCCC3)nc(N)c2c(N)n1	16%	-6%
COc1ccc(NC(=O)c2ccc(S(=O)(=O)N(C)c3ccccc3)cc2)cc1S(=O)(=O)N1CCOCC1	16µM*	16%
c1ccc(-c2cnnc(-c3ccccn3)n2)cc1	50%[activator]	4%
O=C(Nc1ccn(CCCNC2CCN(Cc3ccccc3)CC2)c(=O)n1)OCc1ccccc1	-10%	-4%
C#CCOCCOCCOCCNc1nc(N2CCN(C(=O)[C@H](C(C)C)n3cc(CCO)nn3)CC2)nc(N2CCN(C(=O)[C@H](Cc3ccc(O)cc3)n3cc(CCO)nn3)CC2)n1	-13%	-4%
CC(C)NC(=O)C1(C)CCN1Cc1cccc(C#N)c1 (stereo not drawn)	-9%	7%[18.4 µM]
O=C(C1CCCCC1)N1CCC2CC1c1cc(Cl)ccc12 (stereo not drawn)	14%	-26%
CCOC(=O)[C@]12CCC=C1N(CCC1=CCCCC1)C(=O)[C@H](CC(=O)NCCCCc1ccccc1)C2	0%	2%
COc1ccc(-c2ccccc2)cc1NC(=O)[C@@H]1O[C@H](CO)[C@@H](O)[C@H]1O	-3%	-11%[18.4 µM]
O=C(O)CCC(=O)c1ccc(C2CCCCCC2)cc1	44%[activator]	-59%
COc1ccc(-c2cnc3c(NC(C)=O)cc(-c4ccc(C(=O)N5CCOCC5)cc4)cn23)cc1OC	-2%	15%[18.4 µM]
C[C@@H]1CCCCO[C@@H](CN(C)S(=O)(=O)c2ccc(F)cc2)[C@@H](C)CN([C@H](C)CO)C(=O)c2cc(N(C)C)ccc2O1	-23%	8%
COC(=O)C[C@@H]1C=C[C@@H](NS(=O)(=O)c2ccccc2OC)[C@@H](CO)O1	-5%	7%
C[C@H](CO)N1C[C@H](C)[C@H](CN(C)Cc2ccncc2)Oc2ncc(Br)cc2C1=O	-20%	11%
COc1ccc(-c2csc(C(C)(O)c3ccc(F)c(F)c3)n2)cn1 (stereo not drawn)	-25%	-13%

Part of the list above in order of heavy-atom count, highest first.
SMILES	StopGo reporter	RE007 growth inh
CCN1C[C@@H]2[C@@H]3C(=O)N(Cc4ccccc4)C(=O)[C@@H]3[C@](CC)(C(=O)OC)N2C1=NCc1ccccc1	-11%	1%
O=C(NCc1ccc(F)cc1F)[C@@H]1CCCN1C(=O)[C@@H]1CCCN1C(=O)c1ccccc1	-21%	6%
O=C(c1ccc(Cl)cc1)C1CCN(C(=S)Nc2ccccc2)CC1	-1%	5%
Cc1cc2cc3n(c2nn1)N=C(Cl)CC3	-22%	3%

The listing continues:
SMILES	StopGo reporter	RE007 growth inh
Cc1cc(C)cc(CC(=O)N2CCC2(C)C(=O)NS(=O)(=O)c2ccc(C(C)(C)C)cc2)c1 (stereo not drawn)	-8%	11%[18.4 µM]
CC1(Cc2ccc(C(F)(F)F)nc2)C(=O)Nc2cc(-c3ccccc3Cl)ccc21 (stereo not drawn)	?	10%
CC(C)(C)NC(=O)C1c2ccccc2OCC(=O)N1Cc1ccco1 (stereo not drawn)	-20%	1%
c1ccc(N=NC2=NN(c3ccccc3)CS2)cc1	83%[activator]	-4%
CC(C)C[C@H]1CN([C@@H](CC(C)C)CN2CCC[C@@H]2CN2C(=S)NC[C@@H]2Cc2ccc(O)cc2)C(=S)N1CCc1ccccc1	-21%	-10%
Cc1cccc(-c2cnc(C(O)c3ccc(F)c(C)c3)[nH]2)c1 (stereo not drawn)	42%[activator]	-28%[18.4 µM]
C/C=C/c1cccc(-c2nc(C(=O)NC3CCC3)cc3c2[C@H](CCO)N(S(=O)C(C)(C)C)C3)c1 (stereo partly drawn)	5%	1%
COc1ccc(C(C(=O)NC2CCCCC2)n2c(=O)c(-c3cc4ccccc4[nH]3)nc3ccccc32)cc1 (stereo not drawn)	5%	11%
CC(Nc1nc(-c2ccc(F)cc2)cs1)c1nc2cc(Cl)c(Cl)cc2n1CCCO (stereo not drawn)	-15%	2%
COc1ccc(CNC(=O)c2cccc3c(-c4cccc(C(N)=O)c4)coc23)cc1OC	7.9µM*	4%
CCOC(=O)[C@]12CCC=C1N(Cc1ccco1)C(=O)[C@H](CC(=O)N1CCN(C(=O)c3ccco3)CC1)C2	-18%	-13%
CC1CCCC(C)N1C(=O)CN1C(=O)NC2(CCCCCC2)C1=O (stereo not drawn)	-7%	3%
COCCNc1nc2cc(-c3ccccc3)sc2c(=O)n1C	-15%	-10%
CCOC(=O)C1(C)CCCN(C(=O)c2ccc(OC)cc2OC)C1 (stereo not drawn)	-10%	0%
CCOC(=O)C1(C)CCN1C(=O)c1cc(F)cc(F)c1 (stereo not drawn)	-6%	-10%[18.4 µM]
CCOC(=O)[C@]12CCC=C1N(Cc1ccc3c(c1)OCO3)C(=O)[C@H](CC(=O)NCC1CCCCC1)C2	25%	6%
CC(=O)c1c(C)[nH]c(C(=O)NCc2ccc(Cl)cc2)c1C	6%	2%
Cc1ccccc1-c1csc(C(C)(O)c2ccccc2)n1 (stereo not drawn)	-12%	4%[18.4 µM]
CC1=C(C(=O)N(C)C)CC(CC(=O)NCC2CCCCC2)C(=O)N1Cc1ccc(C(C)(C)C)cc1 (stereo not drawn)	-2%	3%
O=C(CC[C@H]1O[C@@H](n2ccc(=O)[nH]c2=O)[C@H](O)[C@@H]1O)NCc1ccccc1	2%	28%
Cc1ccc(S(=O)(=O)Nc2ccc(F)c(F)c2O)cc1	10%	-5%
COc1ccccc1NC(=O)Nc1nnc([C@H]2C[C@H](O)[C@@H](CO)O2)s1	2%	5%
CCCCc1c(-c2ccc(OC)cc2)ncn1CCc1ccccc1OC	22µM*	?
COc1ccc(-c2ccc3n2Cc2cnnn2-c2ccccc2-3)cc1	3%	-12%
CSc1ccc(CN2C(=O)C(C)ON=C2c2ccccc2F)cc1 (stereo not drawn)	-21%	5%[18.4 µM]

Entries from the list above with a tert-butyl group, in the order listed:
SMILES	StopGo reporter	RE007 growth inh
COc1cccc(-c2cnc(C(O)c3ccc(C(C)(C)C)cc3)[nH]2)c1 (stereo not drawn)	17%	-11%
Cc1cc(C)cc(CC(=O)N2CCC2(C)C(=O)NS(=O)(=O)c2ccc(C(C)(C)C)cc2)c1 (stereo not drawn)	-8%	11%[18.4 µM]
CC(C)(C)NC(=O)C1c2ccccc2OCC(=O)N1Cc1ccco1 (stereo not drawn)	-20%	1%
C/C=C/c1cccc(-c2nc(C(=O)NC3CCC3)cc3c2[C@H](CCO)N(S(=O)C(C)(C)C)C3)c1 (stereo partly drawn)	5%	1%
CC1=C(C(=O)N(C)C)CC(CC(=O)NCC2CCCCC2)C(=O)N1Cc1ccc(C(C)(C)C)cc1 (stereo not drawn)	-2%	3%

Next part.
SMILES	StopGo reporter	RE007 growth inh
CC1(C(=O)Nc2cccc(C(F)(F)F)c2)Cc2c(-c3cccc(C(N)=O)c3)ccnc2O1 (stereo not drawn)	-26%	2%[18.4 µM]
OCCN1CCN(c2ncnc3c2ncn3[C@H]2CN(Cc3ccncc3)C[C@@H](CO)O2)CC1	-1%	1%
CC(C)=CCC12Oc3cc(O)ccc3C1(O)Oc1cc(O)c([C@H]3C=C(C)CC(c4ccc(O)cc4O)[C@H]3C(=O)c3ccc(O)cc3O)c(O)c1C2=O (stereo partly drawn)	-25%	32%
Cc1ccn(CC(=O)NC2CCCN(Cc3ccccc3F)C2)n1 (stereo not drawn)	-6%	-1%
Cc1ccccc1-c1cc2nc(NCc3ccc4occc4c3)n(C)c(=O)c2s1	-19%	28%
O=C1NC(=O)C(C2CCOC2=O)N1 (stereo not drawn)	-17%	-5%
C[C@H]1CN([C@@H](C)CO)C(=O)CCCn2nncc2CO[C@@H]1CN(C)S(=O)(=O)c1cn(C)cn1	-23%	-6%
O=C(OCc1ccccc1)N1C=CC2CC1c1c(Cl)cccc12 (stereo not drawn)	39%[activator]	-3%
COc1ccccc1OCCCN1CCC(C(O)(c2ccccc2)c2ccccc2)CC1	0%	-27%
CC(=O)c1cccc(NC(=O)C2CCCN2S(=O)(=O)c2cccs2)c1 (stereo not drawn)	-18%	-1%
O=C(NCC1CCN(Cc2ccccc2)CC1)[C@H]1O[C@@H](n2ccc(=O)[nH]c2=O)[C@H](O)[C@@H]1O	-16%	-4%
COC(=O)C1=C(c2ccc(OCc3ccccc3)cc2)C[C@@H]2CC[C@H]1N2C(=O)NCc1ccc(OC)cc1	?	-3%
O=C1Nc2ccccc2N(C(=O)c2ccc3ccccc3c2)C1c1nc2ccccc2[nH]1 (stereo not drawn)	-1%	?
CCCNC(=O)N(C)C[C@@H]1Oc2cc(C#C[C@H](C)O)ccc2S(=O)(=O)N([C@H](C)CO)C[C@H]1C	?	22%
O=c1[nH][nH]c2c1[C@H](c1ccc(F)cc1)O[C@H](CCC(F)(F)F)C2	1%	2%
CC1(C(=O)NS(=O)(=O)c2ccc(F)cc2F)CCN1C(=O)Cc1ccccc1Cl (stereo not drawn)	-8%	1%[18.4 µM]
COc1cccc(NC(=S)NC(=O)Cc2ccccc2)c1	61%[activator]	-13%
COc1ccc(NC(=S)N2Cc3ccccc3-n3nncc3C2)c(OC)c1	-19%	5%
